Screening results: PubChem BioAssay, several laboratories
SUMO1 PPI mod – SUMO1-SIM interaction modulation. AID 602429. P63165. 360,000 tested, 0.33% active. inhibition, % at 20 µM. SUMO1 binding to a labelled peptide, TR-FRET, 1 h; in the data active = inhibition above about 37%
LMPTP block – LMPTP (human) inhibition; 360,000 tested, 0.22% active; P24666; recombinant LMPTP-A, OMFP fluorogenic substrate, fluorescence intensity; inhibition, % at 20 µM;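 active = compounds that cut the enzyme signal by at least half of the control window in the single-dose screen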;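 note: plate controls were DMSO wells with enzyme plus substrate for no effect and substrate without enzyme for full effect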
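Buffer or medium: Bis-Tris pH 6.0, DTT, detergent; Assay system: LMPTP-A enzyme; Quantity: 0.625 nM enzyme; Detection: endpoint fluorescence intensity; Times: 50 min dark incubation at room temperature; Controls: substrate-only low control, DMSO enzyme-plus-substrate high control; Doses: single 20 µM dose; Read-out: percent inhibition versus substrate-only and uninhibited controls; Reagent: 400 µM OMFP.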
CendR NRP1 mod – modulators of CendR peptide binding to human neuropilin-1. O14786. FAM-RPARPAR peptide binding to NRP-1, fluorescence polarization. inhibition, % at 25 µM. 360,000 tested, 0.85% active;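 active = inhibition or corrected inhibition above about 18%, plus a signal ratio from 0.5 to 1.5, limit read from the data, passing the limit was not always enough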; note: strong numbers were not always called active
eLon inh – inhibitors of E. coli Lon protease; purified E. coli Lon protease, fluorescence polarization; inhibition, % at 7.94 µM; 360,000 tested, 0.42% active; AID 602123; in the data active = inhibition above about 13%, passing the limit was not always enough;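 note: 0% = enzyme with probe and DMSO and 100% = no enzyme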
STEP block – STEP (human) phosphatase inhibition. P54829. recombinant STEP, OMFP fluorogenic substrate, fluorescence. inhibition, % at 20 µM. 360,000 tested, 0.25% active. AID 588621;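 active = inhibition at 20 µM, scaled per plate between control wells, above about 37%, limit read from the data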;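 note: 0% = DMSO with enzyme and substrate and 100% = substrate only without enzyme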
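Also added – OMFP at 25 µM · Test system – STEP tyrosine phosphatase · Technique – FITC-channel fluorescence of OMFP product · Schedule – 20 min at room temperature, dark · Evaluation – control-normalized % inhibition with plate pattern correction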
Active calls of the source: *.

structure,LMPTP block,STEP block,CendR NRP1 mod,SUMO1 PPI mod,eLon inh
COc1cccc2nc3c(C(=O)NCCN(C)C)cccc3cc12,1.9,-3,8,-34,43
O=C(O)C1CCN(S(=O)(=O)/C=C/c2ccccc2)CC1,-0.4,1,2,-2,-6
CN(C)CCCN1c2ccccc2CCc2ccccc21,-2.0,0,-3,-1,-3
CC(C)(C)c1ccc(-n2ncc3c2CCCC3NC(=O)CCN2CCCC2=O)cc1 (centres undefined),1.0,-1,-54,5,2
Cc1nn(-c2ccccc2)c(Cl)c1/C=N/NC(=O)c1ccncc1,-0.7,3,-3,4,2
C[C@@H]1C[C@H]2[C@@H]3CCC4=CC(=O)C=C[C@]4(C)[C@@]3(F)[C@@H](O)C[C@]2(C)[C@@]1(O)C(=O)COP(=O)(O)O,-1.9,2,-5,3,-3
CN1CCC[C@@H]1CCO[C@](C)(c1ccccc1)c1ccc(Cl)cc1,0.2,-2,0,-6,-20
CN(C)CC/C=C1\c2ccccc2COc2ccccc21,-2.3,2,8,-2,-1
CCOC(=O)c1c(C)oc2ccc(O)cc12,-0.9,-1,-2,6,-3
CCCCNc1ccc(C(=O)O)cc1,-0.8,2,1,0,-9

A second format for 2 compounds above:
Below each SMILES: LMPTP block, STEP block, CendR NRP1 mod, SUMO1 PPI mod, eLon inh
CCOC(=O)c1c(C)oc2ccc(O)cc12
 : -0.9, -1, -2, 6, -3
CCCCNc1ccc(C(=O)O)cc1
 : -0.8, 2, 1, 0, -9

The list continues:
structure,LMPTP block,STEP block,CendR NRP1 mod,SUMO1 PPI mod,eLon inh
CN1CCC(=C2c3ccccc3C=Cc3ccccc32)CC1,-1.0,-2,2,-7,7
COc1cccc(N2CCN(CC(=O)Nc3ccc(-n4cnnn4)cc3)CC2)c1,0.3,2,-10,1,-11
COc1ccccc1C(=O)NNC(=S)NC(=O)c1ccco1,-1.4,0,-2,1,-12
O=C1NC(=S)SC1=Cc1ccccn1,0.0,1,-59,-12,0
C[C@H](CS)C(=O)N1CCC[C@H]1C(=O)O,-0.8,-2,7,-1,2
COc1ccc(Cn2cc(C(=O)O)c(=O)c3ccccc32)cc1,2.6,2,7,-3,-10
O=C(N/N=C/c1ccc(OC(=O)c2ccccc2Cl)cc1)c1cc(O)cc(O)c1,27,86*,-68,35,5
Cc1ccc(/C=C/C(=O)c2ccccc2)cc1,0.7,2,-7,-4,-1

Seven compounds drawn at random from those above, as already listed:
structure,LMPTP block,STEP block,CendR NRP1 mod,SUMO1 PPI mod,eLon inh
C[C@H](CS)C(=O)N1CCC[C@H]1C(=O)O,-0.8,-2,7,-1,2
Cc1ccc(/C=C/C(=O)c2ccccc2)cc1,0.7,2,-7,-4,-1
COc1ccc(Cn2cc(C(=O)O)c(=O)c3ccccc32)cc1,2.6,2,7,-3,-10
O=C(N/N=C/c1ccc(OC(=O)c2ccccc2Cl)cc1)c1cc(O)cc(O)c1,27,86*,-68,35,5
COc1ccccc1C(=O)NNC(=S)NC(=O)c1ccco1,-1.4,0,-2,1,-12
CN1CCC(=C2c3ccccc3C=Cc3ccccc32)CC1,-1.0,-2,2,-7,7
COc1cccc(N2CCN(CC(=O)Nc3ccc(-n4cnnn4)cc3)CC2)c1,0.3,2,-10,1,-11

These rows are one share of the data, so the mix of outcomes need not match the whole.
